Screening results: PubChem, several laboratories
Yfh1-off respiration: mitochondrial function rescue without frataxin homolog – Friedreich's ataxia, plus single-dose screen, dose response (AID 1465). S. cerevisiae Yfh1-off respiration, WST-1 reduction, 72 h; higher fold induction means a stronger effect. fold induction at 50 µM; hits with a dose series show EC50 in µM. 220,000 tested, 0.074% active;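 active = fold induction of absorbance versus untreated yeast above a set limit, then at least 30% activation at any dose in follow-up; inconclusive = repeats straddling the limit, or above it without dose testing; inactive = fold induction below the set limit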;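 also: activators that raise dye reduction in frataxin-depleted yeast; strong numbers were not always called active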
Dynein transport: dynein cargo transport inhibition; 3617.4 mouse cells, GR-EGFP nuclear translocation imaging; test concentration mostly 20 µM; stimulated with dexamethasone, 1 µM; hits give low values; z-score, hits read low; 220,000 tested, 0.47% active;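 active = plate z-score of nuclear minus cytoplasmic receptor signal below a set negative limit, without overly bright fluorescence or cell loss, cut at about -3.5 in these data, passing the limit was not always enough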;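 also: z-score of nuclear minus cytoplasmic ring GR-EGFP intensity difference per well; some compounds called inactive have numbers as strong as hits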
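Medium: Induction medium lacking tetracycline, stripped serum | Probe or stimulus: 1.0 µM final dexamethasone stimulus | Schedule: 48 h induction, then 1 h compound, then 30 min agonist, 37 °C | Signal: Automated 10x imaging of fixed Hoechst-stained cells | Evaluation: Per-cell GR-EGFP intensity, nucleus versus surrounding cytoplasmic ring, well-averaged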
WT yeast gro inh: growth inhibition of WT yeast, mitochondrial fusion screen; mitochondrial fusion phenotypic screen, WT strain; inhibition, % at 10 µM; 190,000 tested, 2.1% active; in the data active = inhibition above about 58%; tested in S. cerevisiae
Hep lipid drop: modulators of hepatic lipid droplet formation; AML12 mouse hepatocytes, oleate lipid droplets, BODIPY imaging; inhibition, % at 6.5 µM; 240,000 tested, 0.4% active; AID 1656;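 active = lipid droplet intensity inhibited by at least 50%, with more than 500 cells counted; inconclusive = wells with under 300 cells, treated as cytotoxic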
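Technique: fluorescence imaging, 20x objective, two fields per well / Assay system: AML12 hepatocytes (mouse) / Measure: % inhibition of lipid droplet signal / Doses: 6.5 µM single-point dosing / Incubation: overnight exposure / Reagent: 100 µM oleic acid challenge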
MT stabilize HCS: microtubule stabilization, imaging screen; HeLa tubulin immunostaining HCS, 24 h; share of cells brighter than vehicle mean+2SD; % tubulin-high responders, % at 10 µM; 200,000 tested, 0.83% active; AID 2205;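 active = plate Z-score above 3 for both tubulin-high and condensed-nucleus cell shares, with cell loss under 80%, at 10 µM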;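 also: anti alpha tubulin signal scored within the nucleus-defined area of each cell; some results filed as inactive read as strong as hits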
Autophagy HCS: modulators of autophagy; MEF GFP-LC3 puncta imaging; test concentration mostly 10 µM; calls only at 10 µM (by protocol); 190,000 tested, 0.98% active; AID 463193;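 active = percentage of spot-positive cells more than 3 SD above its plate mean, without a fluorescence outlier flag or 80% toxicity; inconclusive = no clear call, values can overlap the other calls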;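 also: spot-positive cell cutoff set from DMSO-treated cells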
Insulin prom up: MIN6 insulin promoter up-regulation. MIN6 insulin promoter-GFP reporter, high-content imaging; hits give high values. z-score at 5 µM. 190,000 tested, 0.3% active. AID 1625;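 active = z-score above 3 at 5 µM with at least 500 cells counted in the well; inconclusive = wells under 500 cells, flagged as cytotoxic or low count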
b-catenin transl: alters nuclear translocation of beta-catenin in HeLa cells; immunofluorescence imaging; nuclear translocation activity, % at 5 µM; 190,000 tested, 0.3% active;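 active = nuclear translocation activity above 50% at 5 µM, with a well cell count of 50 or more; inconclusive = wells under 50 cells across six images, flagged as toxic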;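 also: per-cell ratio of nuclear to cytoplasmic median beta-catenin stain intensity; plate controls were DMSO negative control for no effect and GSK-3 inhibitor IX positive control for full effect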
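Test system: HeLa cells, endogenous beta-catenin; Compound: single 5 µM dose plus 0.02–20 µM confirmation series; Times: compound exposure 24 h at 37°C; Signal: fluorescence imaging of beta-catenin antibody stain plus DAPI; Read-out: % activation, nuclear-to-cytoplasmic median beta-catenin signal ratio per cell.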
WT yeast gro inh mutant strain: second read-out of WT yeast gro inh, no call of its own (marks repeat the call); inhibition, %; mitochondrial fusion phenotypic screen, mutant strain inhibition
Dynein transport cytoplasmic EGFP: also measured in Dynein transport; calls as there; z-score; measured here: cytoplasmic GR-EGFP intensity; hits give high values
Dynein transport nuclear GR-EGFP: further read-out of Dynein transport, marked with its call; z-score; measured here: nuclear GR-EGFP intensity;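 lower value marks the stronger effect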
Dynein transport cell count: also measured in Dynein transport; calls as there; z-score; measured here: cell count per field
Insulin prom up cell count: recorded beside Insulin prom up, whose call it bears; cell count; measured here: cytotoxicity, nuclei count;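 total cells summed across four imaged fields per well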
Hep lipid drop cells 6.5 µM: further read-out of Hep lipid drop, marked with its call; cell count; measured here: cell count, cytotoxicity flag;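 cells counted across two imaged fields per well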
b-catenin transl cell count 5 µM: recorded beside b-catenin transl, whose call it bears; cell count; measured here: cell count, cytotoxicity flag
MT stabilize HCS Hoechst-high %: further read-out of MT stabilize HCS, marked with its call; % Hoechst-high responders; measured here: nuclear condensation Hoechst responders;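 share of cells brighter than vehicle mean plus two SD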
MT stabilize HCS cytotoxicity %: second read-out of MT stabilize HCS, no call of its own (marks repeat the call); toxicity, %; measured here: cytotoxicity by cell density;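 0% = mean cell density of plate MIN control wells and 100% = no cells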
Autophagy HCS cell loss 18 h: further read-out of Autophagy HCS, marked with its call; toxicity, %; measured here: cell loss, nuclei count;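 cell loss after 18 h compound exposure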
* = called active by the depositor; i = inactive; ? = inconclusive; · = no result given.

SMILES	Yfh1-off respiration	Dynein transport	Dynein transport cytoplasmic EGFP	Dynein transport nuclear GR-EGFP	Dynein transport cell count	WT yeast gro inh	WT yeast gro inh mutant strain	Hep lipid drop	Hep lipid drop cells 6.5 µM	MT stabilize HCS	MT stabilize HCS Hoechst-high %	MT stabilize HCS cytotoxicity %	Autophagy HCS	Autophagy HCS cell loss 18 h	Insulin prom up	Insulin prom up cell count	b-catenin transl	b-catenin transl cell count 5 µM
O=C(c1ccc(S(=O)(=O)Cc2ccccc2Cl)c([N+](=O)[O-])c1)N1CCN(c2ccccn2)CC1	?	-0.999	0.249	-0.444	-1.74	20.1	-6.5	8.5	699	6.2	4.3	11.4	i	-4.5	0.33	863	0.5	1116
N#CC1=C(SCC(=O)NC23CC4CC(CC(C4)C2)C3)NC(=O)C(C#N)C12CCCCC2 (stereo not drawn)	i	-0.198	-0.227	-0.393	1.06	19.7	2.2	-28.3	771	3.3	2.3	3.1	i	-2.8	-2.26	510	-3.2	1177
COc1ccc(Cc2nc(-c3ccc(-n4cccc4)cc3)no2)cc1OC	i	-0.00339	-0.0914	0.262	0.325	9.7	5.6	-18.9	510	3.2	1.9	5.7	i	21.9	0.18	1644	2.6	1083
Cc1ccc(/C=C2/SC(=S)N(c3ccc(S(=O)(=O)Nc4nccs4)cc3)C2=O)cc1	i	-0.0237	-0.272	0.48	-0.0774	·	·	-2.2	609	·	·	·	·	·	0.77	917	-0.9	1286
COc1cccc(C(=O)c2sc(NC(C)C)nc2N)c1	i	-0.068	-0.191	0.552	0.383	-20.4	-11.0	-0.4	738	10.1	1.6	24.0	i	-15.5	?	·	3.9	980
O=C(Nc1ccc(S(=O)(=O)N2CCOCC2)cc1)c1cc(-c2cc(Cl)ccc2O)n[nH]1	i	0.423	0.618	0.146	-0.526	·	·	0.2	709	·	·	·	·	·	-1.04	937	10.8	877
C/C(=N\NC(=O)c1nnn(-c2nonc2N)c1CN1CCc2ccccc21)c1ccccc1O	·	·	·	·	·	·	·	4.7	598	·	·	·	·	·	·	·	·	·
COc1ccc(NS(=O)(=O)c2cccc(NC(=O)c3ccc(S(=O)(=O)N4CCCCCC4)cc3)c2)cc1	i	-0.453	-0.18	-0.149	-0.172	13.3	12.8	-22.7	592	18.2*	9.3*	41.9*	i	7.4	-1.83	531	0.2	983
N#C/C(=C(/O)Cc1cccc2ccccc12)c1nc2ccccc2s1	i	-0.571	0.157	0.299	-0.0606	12.3	-2.6	1.0	764	2.9	1.9	6.6	i	-0.8	·	·	0.3	1168
S=c1[nH]nc(-c2cc(-c3ccccc3)n[nH]2)n1/N=C/C(Br)=C/c1ccccc1	i	-4.26*	0.589*	-1.88*	-0.463*	·	·	7.0	715	·	·	·	·	·	-0.44	762	1.7	925
CC1(C)N=C(N)N=C(N)N1c1ccc(OCCCOc2ccccc2)c(Cl)c1	i	0.264	-0.23	-0.276	-0.535	·	·	-62.0	402	·	·	·	·	·	-1.24	700	-1.0	1070
O=[N+]([O-])c1ccc(O)c(/C=N/Nc2ccc(Cl)nn2)c1	i	-0.219	-0.219	0.35	1.1	5.7	2.2	·	·	2.6	2.0	23.8	i	25.7	?	·	6.8	1292
Cc1c(C(=O)Nc2ccccc2[N+](=O)[O-])csc1-c1ccccc1	i	-0.872	0.232	-0.527	0.396	74.0*	68.5*	-1.9	529	4.1	3.1	2.8	i	-5.1	-0.85	1386	1.2	1088
CN(Cc1ccccc1)S(=O)(=O)c1nnc(NC(=O)c2ccc(F)cc2)s1	·	·	·	·	·	·	·	2.0	738	·	·	·	·	·	·	·	·	·
Cc1cccc(Nc2nc(N)nc(CCl)n2)c1	?	1.2	-0.182	0.443	-0.831	·	·	6.1	702	·	·	·	·	·	-0.67	907	1.3	1340

Six entries from above, with bars between the fields:
mol | Yfh1-off respiration | Dynein transport | Dynein transport cytoplasmic EGFP | Dynein transport nuclear GR-EGFP | Dynein transport cell count | WT yeast gro inh | WT yeast gro inh mutant strain | Hep lipid drop | Hep lipid drop cells 6.5 µM | MT stabilize HCS | MT stabilize HCS Hoechst-high % | MT stabilize HCS cytotoxicity % | Autophagy HCS | Autophagy HCS cell loss 18 h | Insulin prom up | Insulin prom up cell count | b-catenin transl | b-catenin transl cell count 5 µM
O=C(Nc1ccc(S(=O)(=O)N2CCOCC2)cc1)c1cc(-c2cc(Cl)ccc2O)n[nH]1 | i | 0.423 | 0.618 | 0.146 | -0.526 | · | · | 0.2 | 709 | · | · | · | · | · | -1.04 | 937 | 10.8 | 877
C/C(=N\NC(=O)c1nnn(-c2nonc2N)c1CN1CCc2ccccc21)c1ccccc1O | · | · | · | · | · | · | · | 4.7 | 598 | · | · | · | · | · | · | · | · | ·
COc1ccc(NS(=O)(=O)c2cccc(NC(=O)c3ccc(S(=O)(=O)N4CCCCCC4)cc3)c2)cc1 | i | -0.453 | -0.18 | -0.149 | -0.172 | 13.3 | 12.8 | -22.7 | 592 | 18.2* | 9.3* | 41.9* | i | 7.4 | -1.83 | 531 | 0.2 | 983
N#C/C(=C(/O)Cc1cccc2ccccc12)c1nc2ccccc2s1 | i | -0.571 | 0.157 | 0.299 | -0.0606 | 12.3 | -2.6 | 1.0 | 764 | 2.9 | 1.9 | 6.6 | i | -0.8 | · | · | 0.3 | 1168
S=c1[nH]nc(-c2cc(-c3ccccc3)n[nH]2)n1/N=C/C(Br)=C/c1ccccc1 | i | -4.26* | 0.589* | -1.88* | -0.463* | · | · | 7.0 | 715 | · | · | · | · | · | -0.44 | 762 | 1.7 | 925
CC1(C)N=C(N)N=C(N)N1c1ccc(OCCCOc2ccccc2)c(Cl)c1 | i | 0.264 | -0.23 | -0.276 | -0.535 | · | · | -62.0 | 402 | · | · | · | · | · | -1.24 | 700 | -1.0 | 1070

Next section
SMILES	Yfh1-off respiration	Dynein transport	Dynein transport cytoplasmic EGFP	Dynein transport nuclear GR-EGFP	Dynein transport cell count	WT yeast gro inh	WT yeast gro inh mutant strain	Hep lipid drop	Hep lipid drop cells 6.5 µM	MT stabilize HCS	MT stabilize HCS Hoechst-high %	MT stabilize HCS cytotoxicity %	Autophagy HCS	Autophagy HCS cell loss 18 h	Insulin prom up	Insulin prom up cell count	b-catenin transl	b-catenin transl cell count 5 µM
CCCC(Oc1ccc(Br)cc1)c1nc2c3cc(OC)c(OC)cc3nc(=S)n2[nH]1 (stereo not drawn)	i	-0.217	-0.287	-0.0142	0.557	44.5	5.2	0.0	714	3.6	2.3	4.7	i	7.2	·	·	-0.2	1110
COc1ccc2cc3c(N)nn(C(=O)Cc4ccccc4OC)c3nc2c1	i	0.925	-0.0426	0.621	0.124	8.8	-14.8	·	·	5.4	2.6	5.3	i	4.1	-1.32	925	·	·
Cc1ccc(Nc2nc(N)nc(CCl)n2)c(C)c1	i	-1.1	-0.0798	0.0913	-1.12	·	·	5.8	740	·	·	·	·	·	0.14	1031	-2.5	1311
Cc1cc(NC(c2cccnc2)c2ccc3cccnc3c2O)no1 (stereo not drawn)	i	0.144	-0.194	-0.158	0.121	-0.2	-15.3	·	·	1.7	0.8	17.4	i	21.0	-3.91	724	4.4	1058
Cc1c(C(=O)Nc2nc3ccccc3[nH]2)oc2ccc(Br)cc12	i	-0.57	-0.0966	-0.396	-0.634	44.6	12.9	-3.8	661	2.9	1.9	1.9	i	-2.0	-0.05	1503	-4.4	1231
CC(C)(C)c1ccc(-c2noc(CCC(=O)NCc3ccco3)n2)cc1	i	1.79	-0.178	0.781	-0.694	37.6	19.6	0.3	725	3.8	1.9	4.9	i	7.5	-0.9	1292	-1.6	1086
COc1ccc(-c2cn3ccccc3n2)cc1	i	-0.0427	-0.265	0.0934	0.326	·	·	-2.3	758	·	·	·	·	·	-0.13	1113	0.3	1253
Cc1ccccc1NC1=C/C(=N\S(=O)(=O)c2cccs2)c2ccccc2C1=O	i	-0.865	-0.0916	-0.257	0.865	88.9*	63.2*	25.5	469	3.6	1.2	80.8	i	43.5	?	·	-0.8	1140
O=C(N/N=C/c1cc(Br)c(Br)s1)c1ccncc1	i	0.219	-0.265	0.132	0.235	-7.1	-7.1	14.1	703	3.6	2.8	1.6	i	-14.3	0.17	1297	0.1	1159
Cc1nc2ccc(NS(=O)(=O)c3ccc(F)c(C)c3)cc2[nH]1	·	·	·	·	·	·	·	-1.0	823	·	·	·	·	·	·	·	·	·
S=C(NNc1ccnc2cc(Cl)ccc12)Nc1ccccc1Cl	i	0.481	-0.0281	0.629	-1.72	41.7	22.1	-2.7	710	5.2	2.1	19.0	i	-0.7	?	·	0.6	926
CNC(=O)c1nnsc1S(=O)(=O)c1ccc(Cl)cc1	i	-4.01*	1.77*	-2.05*	-0.117*	69.3*	67.7*	-0.9	695	2.7	1.2	8.4	i	20.9	0.44	1154	-1.0	1067
Cc1onc(-c2c(F)cccc2Cl)c1C(=O)Nc1nnc(C(F)(F)F)s1	·	·	·	·	·	·	·	-6.3	835	·	·	·	·	·	·	·	·	·
COc1ccc(-c2cnc(N)nc2-c2ccc(OC)cc2O)cc1	i	-0.322	-0.284	0.0879	0.692	-8.8	-21.8	·	·	4.2	2.0	3.0	i	-3.4	-0.91	1378	-5.9	956
CCOc1ccc(S(=O)(=O)Nc2cc(SCC(=O)O)c(O)c3ccccc23)cc1	·	·	·	·	·	·	·	-12.8	785	·	·	·	·	·	·	·	·	·
COc1cc(C(=O)N/N=C(\c2ccccc2)c2ccccn2)cc(OC)c1OC	i	0.811	-0.225	0.572	-0.964	3.2	-5.8	18.4	583	2.6	1.5	5.4	i	20.5	-3.93	809	1.6	1067
CN(C)S(=O)(=O)N1CCC(Oc2cccc(C(=O)NC3CCCCCC3)c2)CC1	·	·	·	·	·	·	·	0.5	679	·	·	·	·	·	·	·	·	·

Some of the compounds tested; count on the stated rates, not on these rows.
